Vif A3G = inhibitors of Vif binding to APOBEC3G peptide, primary screen, biochemical, TR-FRET, GST-Vif 1-94, biotin-A3G peptide, dose response retest (AID 1117319); hit rate 0.57% among 260,000; one-dose inhibition, %; IC50 in µM for titrated hits; TR-FRET GST-Vif / biotin-A3G peptide binding; higher % means a stronger effect; test concentration not given here; strong numbers were not always called active;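 active = above the screen mean plus three standard deviations and confirmed in dose response; inconclusive = results disagree or hit not tested in dose response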;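 note: Vif residues 1-94 fused to GST binding biotinylated APOBEC3G peptide 110-148; 0% = full assay without inhibitor and 100% = GST in place of GST-Vif; retest series ran down from 100 µM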
B2AR ag = beta2AR agonists driving receptor internalization, primary screen, cell-based, FAP fluorogen, flow cytometry. hit rate 0.43% among 340,000. AID 504454, 2011. response, % (concentration not given with the values). Beta-2 adrenergic receptor (Homo sapiens), P07550. Am2.2-beta2AR cells; reference of the scale not given here;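 active = response above a set limit, near 3 SD of response in nonfluorescent compounds, cut at about 42% in these data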;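 note: stock transfer was 100 nL into about 11 µL; a reference agonist was the positive control; negative values mostly stem from fluorescent compounds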
Target sequence (P07550 whole entry, looked up): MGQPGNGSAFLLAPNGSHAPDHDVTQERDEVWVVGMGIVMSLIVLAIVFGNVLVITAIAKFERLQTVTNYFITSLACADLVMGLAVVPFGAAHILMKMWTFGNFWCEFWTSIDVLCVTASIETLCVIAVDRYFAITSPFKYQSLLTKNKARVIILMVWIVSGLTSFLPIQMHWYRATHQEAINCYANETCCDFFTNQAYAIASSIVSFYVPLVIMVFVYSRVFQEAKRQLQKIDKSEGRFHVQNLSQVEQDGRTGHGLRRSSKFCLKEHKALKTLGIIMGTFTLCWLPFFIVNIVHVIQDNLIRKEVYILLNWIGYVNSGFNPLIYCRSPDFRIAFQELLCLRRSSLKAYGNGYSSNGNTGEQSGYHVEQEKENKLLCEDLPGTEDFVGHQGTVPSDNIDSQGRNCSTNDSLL
RanGTP-Impb inh = inhibitors of RanGTP-importin-beta interaction, primary screen, biochemical, FRET, CFP-Ran, YFP-importin-beta, homogeneous | Ran GTPase (GTP-bound) - importin-beta complex | cell-free CFP-Ran/YFP-importin-beta FRET ratio | inhibition, % (test concentration not listed) | hit rate 1.1% among 300,000 | AID 2216, 2009;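 active = most replicates above 15%; inconclusive = exactly half above 15%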;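 note: 0% = DMSO wells and 100% = Ran loaded with GDP instead of GTP; wells of about 40 µL received 100 nL stock; the first replicate is given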
Calb FLC = C. albicans growth inhibition with fluconazole, primary screen, CaCi-2 strain, Alamar Blue fluorescence. C. albicans CaCi-2 (fluconazole-resistant clinical isolate) + fluconazole, 48 h. growth inhibition, % (test concentration not listed). hit rate 0.57% among 300,000. AID 1979, 2009;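 active = most replicates above 75%; inconclusive = exactly half above 75%; inactive = most below 75%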;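 note: all wells also contain fluconazole at 8 µg/ml as a sub-toxic cotreatment; 0% = median of DMSO wells and 100% = median of geldanamycin control wells; wells of about 8 µL received 7.5 nL stock; the first replicate is given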
HNF4A DNA FP = change in binding of human HNF4A to DNA, primary screen, biochemical, fluorescence polarization, FITC-DNA; activity change, % at 10 µM; AID 1224865, 2016; Hepatocyte nuclear factor 4-alpha (Homo sapiens), P41235; 1 h; hit rate 0.3% among 360,000; in the data active = activity change above about 30%, passing the limit was not always enough;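 note: controls were the assay level and a saturating level of protein; the project sought stronger binding though the title names inhibitors; some compounds called inactive have numbers as strong as hits; positive values seem to mean higher polarization but the record does not say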
Target sequence (P41235 whole entry, looked up): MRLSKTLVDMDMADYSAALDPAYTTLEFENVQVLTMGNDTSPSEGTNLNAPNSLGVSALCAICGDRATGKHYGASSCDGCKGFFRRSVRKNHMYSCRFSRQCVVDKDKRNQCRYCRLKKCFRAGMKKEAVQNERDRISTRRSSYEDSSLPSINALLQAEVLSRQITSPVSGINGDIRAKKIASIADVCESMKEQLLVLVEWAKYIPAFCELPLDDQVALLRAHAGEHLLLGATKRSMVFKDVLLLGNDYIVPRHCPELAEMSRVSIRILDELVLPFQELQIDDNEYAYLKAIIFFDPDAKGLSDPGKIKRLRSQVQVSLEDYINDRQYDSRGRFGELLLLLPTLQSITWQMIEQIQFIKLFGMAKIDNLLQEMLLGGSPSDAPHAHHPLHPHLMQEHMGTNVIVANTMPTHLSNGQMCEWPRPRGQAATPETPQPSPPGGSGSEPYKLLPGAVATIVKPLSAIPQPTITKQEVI
LANA-H2A inh = blockers of LANA interaction with H2A/H2B – biochemical, FP readout, HTS, primary screen; Protein LANA1 (Human herpesvirus 8 type P (isolate GK18)), Q9QR71; hit rate 0.6% among 320,000; cell-free LANA-H2A/H2B peptide, fluorescence polarization; inhibition, % (no concentration beside the values); in the data active = inhibition mostly above about 10%, no sharp cut-off; inactive = mostly below about 6.7%;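 note: stock transfer was 7.5 nL into about 10 µL; 0% = median of vehicle wells and 100% = median of positive control wells; one replicate is shown; the record names a cut of 25% in any replicate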
ALR H2O2 inh = inhibitors of human ALR sulfhydryl oxidase, primary screen, biochemical, H2O2 detection, HRP-luminol luminescence, single point; FAD-linked sulfhydryl oxidase ALR (Homo sapiens), P55789; purified ALR, DTT oxidation; inhibition, % (no concentration beside the values); hit rate 3.8% among 290,000; AID 485317, 2010;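 active = mean and each replicate at 75% or more; inconclusive = only one of the two met; inactive = neither met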;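 note: stock transfer was 7.5 nL into about 7.5 µL; 0% = neutral wells and 100% = wells with inactivated enzyme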
Target sequence (P55789 whole entry, looked up): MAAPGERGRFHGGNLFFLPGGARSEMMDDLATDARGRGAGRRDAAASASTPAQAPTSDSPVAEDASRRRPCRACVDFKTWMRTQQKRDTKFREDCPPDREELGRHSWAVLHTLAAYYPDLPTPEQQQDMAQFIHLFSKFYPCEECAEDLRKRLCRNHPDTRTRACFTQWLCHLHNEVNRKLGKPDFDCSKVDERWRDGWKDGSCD
Numbers without * were called inactive; ? = inconclusive; / = no result given; & = joins results of further samples.

SMILES	Vif A3G	B2AR ag	RanGTP-Impb inh	Calb FLC	HNF4A DNA FP	LANA-H2A inh	ALR H2O2 inh
COC(=O)C1=C(O)/C(=C\c2ccc(CNC(=O)C(=O)Nc3ccc(C)c(C)c3)o2)N=C1C	34µM*	70*	1.1	-10	4.0	-1.5	-3
CCNC(=O)C(=O)N1CCC2(CC1)OCCN2S(=O)(=O)c1ccc(C)cc1	-2%	0	-1.7	8	1.1	-0.9	0
O=C(NCCN1CCN(C(=O)c2cccc(Br)c2)CC1)C(=O)Nc1ccc(Br)cc1	/	-3	-2.6	23	0.6	1.4	-2
COc1ccc(C(=O)NCc2nnc(SCC(=O)c3ccccc3)o2)cc1	1%	2	1.6	-3	-1.3	-1.0	42
O=C(CCCN1CCC(O)(c2ccc(Br)cc2)CC1)c1ccc(F)cc1	/	2	/	/	-2.6	-4.6	-4
COC(=O)Nc1ccc(N2CCOCC2)c(S(=O)(=O)N2CCOCC2)c1	7%	-1	4.1	-6	8.0	-0.9	-8
CCC(CC)c1nnc(NC(=O)c2cc([N+](=O)[O-])ccc2N2CCOCC2)s1	/	-5	/	/	1.9	-5.7	/
CCC(=O)Nc1ccc(C(=O)CSc2nnc(-c3ccccc3F)n2C2CC2)cc1	/	-12	1.7	-6	-22	1.6	/
Cc1cc(C)c(S(=O)(=O)N(C)CC(=O)NCC2CCCO2)c(C)c1 (stereo not given)	/	0	-0.1	2	1.5	/	/
Nc1c(Br)cc2c(c1Br)C(O)c1ccccc1-2 (stereo not given)	-3%	-5	/	/	0.2	/	/
Cc1ccc(-n2nnnc2SCC(=O)N(CC(C)C)c2c(N)n(CC(C)C)c(=O)[nH]c2=O)cc1	/	-1	8.6	7	-5.3	0.3	-24
CCCC1(C(=O)OCC)NC(c2ccc(OC)cc2OC)C2C(=O)N(c3ccccc3)C(=O)C21 (stereo not given)	2%	-4	1.8	18	-1.8	-1.0	0
COc1ccccc1CCNC(=O)CNC(=O)Cc1cccc2ccccc12	0%	7	0.0	2	2.1	-1.8	-3
COc1ccccc1CNC(=O)C1Cc2ccccc2C(=O)O1 (stereo not given)	-8%	7	-0.5	5	1.1	-3.2	26
Cc1cc(Nc2ccccc2Cl)nc(-c2ccccc2O)n1	5%	6	?	20	1.0	1.6	3
O=C1CN(C(=O)CSc2nc3ccccc3n2CCc2ccccc2)c2ccccc2N1	/	-11	-2.7	-44	-4.9	-6.3	-7
COc1ccc(O)c(C(=O)c2cnc3nc4ccccc4n3c2)c1	10%	10	-4.1	-4	2.5	-14	37
Cc1ccc(-c2noc(CN(C(=O)c3ccc4c(c3)OCO4)C(C)C)n2)cc1	/	8	0.7	0	6.8	-4.2	2
O=C(C1CCCN(S(=O)(=O)c2ccccc2)C1)N1CCN(c2ncccn2)CC1 (stereo not given)	31%	3	-2.3	12	-1.0	-18	-22
Cc1ccccc1N1CCN(Cc2cc3c(cc2[N+](=O)[O-])OCO3)CC1	/	-3	2.8	-12	2.8	3.5	-3
CC(=O)N1CCc2cc(S(=O)(=O)NCC(=O)NCc3ccc(F)cc3)ccc21	/	-7	3.4	-4	-0.2	-3.0	-5
CN1CCN(C(=O)c2cc3nc(-c4ccco4)cc(C(F)(F)F)n3n2)CC1	-4%	-10	-3.3	-1	-0.3	-1.0	-1
Cc1ccc(C(=O)NC(C)C2CC3CCC2C3)cc1 (stereo not given)	/	-8	-2.5	1	3.0	-1.0	-14
Cc1nc(NC(=O)CSc2nnc(C)n2CC2CCCO2)sc1C (stereo not given)	0%	-3	-0.3	1	-1.7	4.8	-3
COc1ccc(-c2nnc(SCc3nnc(-c4ccccc4)o3)n2-c2ccccc2)cc1	3%	-12	-1.0	-5	0.2	2.3	-25

(next part)
SMILES	Vif A3G	B2AR ag	RanGTP-Impb inh	Calb FLC	HNF4A DNA FP	LANA-H2A inh	ALR H2O2 inh
Cc1nc(NCCN2CCOCC2)c2nnn(Cc3c(F)cccc3Cl)c2n1	17%	1	1.7	-5	-1.3	4.6	-10
COc1cc(/C=N/NC(=O)c2c(C)nnn2-c2nonc2N)ccc1O	?	12	-1.9	10	1.4	0.1	23
Cc1ccccc1OCC(O)CNC1CCCC1 (stereo not given)	-6%	-8	3.4	5	-2.0	7.5	-6
Cc1cccc(Nc2ncc3c(n2)CC(C)CC3=O)c1 (stereo not given)	16%	-11	-2.3	-10	-2.7	-1.5	0
COc1cc(C(=O)Nc2ccc(S(=O)(=O)Nc3cnc4ccccc4n3)cc2)cc(OC)c1OC	/	-8	-3.1	22	1.2	0.7	-1
O=[N+]([O-])c1cccc(CN2CCC(Cc3ccccc3)CC2)c1	/	3	-4.3	1	0.6	0.0	-2
CCn1c(N2CCN(CC(=O)c3c[nH]c4ccccc34)CC2)nc2c1c(=O)[nH]c(=O)n2C	4%	-1	5.2	1	8.1	-4.2	-5
CC(NC(=O)c1cccc(OC2CCN(C(=O)C3CC3)CC2)c1)c1ccc(F)cc1 (stereo not given)	-8%	6	1.4	1	2.4	-0.1	-11
Cc1ccc(C)n1N1C(=O)/C(=C\c2ccc(Cl)cc2)SC1=S	17%	7	-5.3	-5	-1.3	-3.8	9
CC(=O)c1cccc(NC(=O)CCNS(=O)(=O)c2cccc3nsnc23)c1	12%	-3	1.4	0	0.5	5.8	-12
CCOC(=O)C1(CCCc2ccccc2)CCN(C(=O)C2=C(C)OCCO2)CC1	4%	2	-0.2	-1	-1.1	/	/
O=C(NCCc1ccccc1)C1CCN(S(=O)(=O)N2CCCCCC2)CC1	/	6	0.5	4	-0.1	-2.1	2
Cc1cc(NC(=O)CSc2nc3ccccc3n2CC(=O)N2CC(C)CC(C)C2)no1 (stereo not given)	-1%	-8	1.7	?	6.1	-0.2	-3
Cc1ccc2c(c1)SC1=NC(c3ccccc3)(C(F)(F)F)NC(=O)N12 (stereo not given)	-4%	/	0.7	-2	/	1.2	-2
COC(=O)C1CCc2c(ccc3c2CCCC3)C1=O (stereo not given)	0%	2	/	/	-1.5	/	/
COc1cccc(C2N(c3cccc(Cl)c3)C(=O)C3CCCN32)c1 (stereo not given)	-3%	-5	3.6	-1	4.6	3.2	-9
COC(=O)c1ccc(OCC(=O)Nc2ccsc2C(=O)OC)cc1	3%	4	-0.4	1	-0.6	1.1	-2
COCCN1CCN(C(=O)c2cc(COc3ccc(F)cc3Cl)on2)CC1	/	-9	-1.2	-3	4.1	0.2	-1
CC(C)C[C@@H](NC(=O)[C@H]1CCCN1C(=O)Cc1ccccc1)C(N)=O	-4%	2	2.7	-6	-0.9	3.6	-16
O=C(CSc1n[nH]c(-c2ccccn2)n1)Nc1ccccc1F	/	4	1.6	2	-3.1	-0.8	1
Brc1ccc(CSc2ncnc3nc[nH]c23)cc1	2%	-14	-1.6	0	3.1	-2.8	2
Fc1ccc(NC(=S)Nc2ccc(Br)cc2)cc1	3%	5	?	0	-2.5	/	/
Cc1ccc(S(=O)(=O)NCCCNS(C)(=O)=O)cc1	-2%	4	?	-9	-0.1	3.9	-9
O=C(CC1C(=O)NCCN1Cc1cccc(F)c1)NC1CCCCCC1 (stereo not given)	0%	1	5.7	-1	-0.9	7.7	1
CCOC(O)[C@H]1N[C@@H](c2ccc(Cl)cc2)[C@@H]([N+](=O)[O-])[C@@H]1c1ccccc1 (stereo not given in full)	-5%	5	-1.5	1	-2.0	-4.1	/

The results go on:
SMILES	Vif A3G	B2AR ag	RanGTP-Impb inh	Calb FLC	HNF4A DNA FP	LANA-H2A inh	ALR H2O2 inh
NC(=O)COC(=O)c1sc2cc(F)ccc2c1Cl	3%	2	-0.3	-2	-1.9	0.8	-1
O=C(NCCCN1CCOCC1)C(=O)c1c[nH]c2ccccc12	/	4	?	-4	4.5	1.1	-10
Cc1cc(C)c(NC(=O)CSc2nc3ncc(Br)cc3[nH]2)c(Cl)c1	-98%	-4	3.1	2	-2.4	3.1	2
COc1ccc(CNC(=O)c2ccc(N3CCCC3=O)cc2)cc1	3%	18	1.9	5	0.9	-0.1	-63
Cn1c(CO)cnc1-c1ccccc1	/	4	-0.3	-1	-2.2	-2.0	-1
COc1cccc(=O)c2c(C)n(-c3ccc(C(=O)O)cc3)c(C)c12	3.2µM*	4	-12	-6	-28	-2.5	6
COC(C[C@H]1O[C@@H]1[C@H](O)[C@H](C)OCc1ccccc1)OC	/	1	0.7	-4	-2.1	-1.1	2
NC(=O)CSc1nnc(-c2cccs2)n1-c1ccccc1	6%	7	0.9	-1	4.0	0.9	-25
COC(=O)c1cc2ccccc2c([N+](=O)[O-])c1O	-7%	1	/	/	16	/	/
Cc1cc(Cl)ccc1OCC(=O)OCC(=O)c1c(N)n(C)c(=O)n(C)c1=O	/	0	/	/	1.6	0.0	1
CN1CCN/C1=C(/C(Cl)=C(Cl)Cl)[N+](=O)[O-]	?	-2	0.3	-2	-1.1	5.9	0
COc1ccc(C)c(NC(=O)NCCc2cnc[nH]2)c1	0%	3	0.7	19	-0.5	1.2	-4
O=C(NCCCn1ccnc1)c1cccc(Br)c1	-4%	-7	-2.7	-7	0.7	-1.3	-8
COc1cc(NC(=O)COc2ccc(-n3ccnc3)cc2)cc(OC)c1	-2%	-4	-0.4	2	-3.5	-1.0	13
CC(=O)Nc1ccc(S(=O)(=O)N2CCSC2c2ccc(Cl)cc2)cc1 (stereo not given)	4%&-11%	-9	-6.0	-23	1.6	2.6	9
COC(=O)Nc1nnc(-c2ccccc2OC)s1	-4%	0	2.8	-6	1.0	0.1	-7
CC1(C)C(=O)Nc2ccccc2N1C(=O)CN1C(=O)C(=O)N(C2CCCC2)C1=O	-5%	0	3.2	-19	1.8	-0.8	4
CCOC(=O)c1c(NC(=O)c2cc(C)on2)c2cc([N+](=O)[O-])ccc2n1C	?	/	-4.7	-30	/	5.7	0
COc1cccc(NC(=O)Cn2nnc(C(=O)NCc3cccs3)c2N)c1	-4%	-6	-0.8	-9	0.3	3.6	-9
COc1ccc(S(=O)(=O)NC2CCCCC2)cc1-n1cnnn1	13%	-4	/	-3	0.3	3.8	-30
CN(C)CCCN(C(=O)COc1ccc(Cl)cc1)c1nc2cc3c(cc2s1)OCCO3	-7%	24	3.0	-8	4.0	-6.1	-6
COc1ccc2nc(Nc3nc(CSc4nnc(C)s4)cc(=O)[nH]3)nc(C)c2c1	?	/	-1.5	0	/	-2.4	-5
CCc1cccc(NC(=O)CN(C)C2=NS(=O)(=O)c3ccccc32)c1	-16%	-1	/	/	0.2	2.4	16
CCN(CC(=O)Nc1ccccc1C(F)(F)F)C(=O)c1cccc(S(=O)(=O)N2CCN(C)CC2)c1	1%	-5	2.9	-7	-1.7	-2.0	9
C/C(=C\C(=O)C(F)(F)F)Nc1cc(C)cc(C)c1	0%	8	-3.0	-3	-1.4	-6.2	/
CN1C(=O)C2(OCCCO2)c2ccccc21	/	-1	-1.1	-1	0.0	-4.0	3
Cc1cccc(/N=C/c2sc3ccccc3c2O)n1	-9%	10	33*	-14	2.2	-4.3	2
O=c1[nH]c(=O)n(CCc2ccc(F)cc2)c(O)c1C=NCc1ccc2c(c1)OCO2	27%	7	1.9	-4	4.2	0.5	-14

2 entries from above, with bars between the fields.
SMILES | Vif A3G | B2AR ag | RanGTP-Impb inh | Calb FLC | HNF4A DNA FP | LANA-H2A inh | ALR H2O2 inh
CN1C(=O)C2(OCCCO2)c2ccccc21 | / | -1 | -1.1 | -1 | 0.0 | -4.0 | 3
Cc1cccc(/N=C/c2sc3ccccc3c2O)n1 | -9% | 10 | 33* | -14 | 2.2 | -4.3 | 2
